TRPV1 PAM: potentiators of human vanilloid receptor 1 (TRPV1) | TRPV1-expressing cells, Fluo-8 calcium influx, capsaicin EC20 potentiation; host cell line not named in the record; control for the full effect not named in the record | potentiation, % at 8.33 µM | 320,000 compounds, 0.02% hits | AID 540277; active means potentiation above 80%; inconclusive means 30% to 80%; inactive means below 30%; also: 0% is about no effect
Target sequence (Q8NER1 whole entry, looked up): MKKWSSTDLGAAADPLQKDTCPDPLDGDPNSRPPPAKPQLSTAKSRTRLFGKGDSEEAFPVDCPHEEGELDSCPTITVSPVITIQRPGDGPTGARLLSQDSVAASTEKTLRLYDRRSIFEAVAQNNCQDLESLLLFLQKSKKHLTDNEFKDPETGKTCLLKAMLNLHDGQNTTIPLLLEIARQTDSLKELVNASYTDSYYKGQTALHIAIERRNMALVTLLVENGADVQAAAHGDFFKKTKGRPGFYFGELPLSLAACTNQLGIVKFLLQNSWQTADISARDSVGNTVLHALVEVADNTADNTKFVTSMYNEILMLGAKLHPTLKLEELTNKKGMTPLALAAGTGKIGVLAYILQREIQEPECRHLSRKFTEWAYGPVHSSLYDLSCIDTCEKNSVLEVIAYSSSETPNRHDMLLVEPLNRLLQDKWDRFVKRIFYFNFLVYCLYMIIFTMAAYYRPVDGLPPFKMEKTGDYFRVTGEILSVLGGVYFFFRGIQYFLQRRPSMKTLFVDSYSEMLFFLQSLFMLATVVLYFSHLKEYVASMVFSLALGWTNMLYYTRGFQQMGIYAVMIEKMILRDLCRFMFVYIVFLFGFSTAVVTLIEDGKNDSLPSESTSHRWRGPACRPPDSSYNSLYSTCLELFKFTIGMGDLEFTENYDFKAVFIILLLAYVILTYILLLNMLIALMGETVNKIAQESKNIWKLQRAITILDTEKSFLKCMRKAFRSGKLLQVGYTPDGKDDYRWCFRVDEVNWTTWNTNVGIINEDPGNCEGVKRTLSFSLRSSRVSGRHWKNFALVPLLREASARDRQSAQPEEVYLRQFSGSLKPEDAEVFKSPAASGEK
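Cells expressing TRPV1 were dye-loaded with Fluo-8 and read kinetically: 10 s baseline, 3 min after compound (agonist portion), then 2 min after EC20 capsaicin (allosteric enhancer portion). Calcium-bound dye fluorescence at 480/520 nm.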
TRPML1 blocker: inhibitors of human TRPML1 channel; Q9GZU1; TRPML1-inducible cells, Ca2+ dye fluorescence, FDSS; hits give low values; inhibition of EC80 agonist-evoked calcium signal; activity change, negative = inhibition, % (concentration not given with the values); 390,000 compounds, 0.02% hits; in the data active means activity change below about -50%; inconclusive means about -30% to -50%; inactive means above about -30%;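 also: stimulus is agonist 54-4 at its EC80 concentration; % is scaled to controls: 0 for no effect and ±100 for the full control effect; the text of the record puts the active cut at -80%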
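TRPML1-DL cells, Tet-induced overnight (~16 h, 37 °C) at 1,500 cells/well, were loaded with Ca8 no-wash dye plus quencher for 45-90 min at room temperature. Compounds were pinned during FDSS kinetic reading; agonist 54-4 at EC80 (4 uM final) then added.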
Sfp inh: blocks B. subtilis Sfp PPTase activity. AID 1490. Biochemical Sfp PPTase activity, qHTS. Potency, µM, for inactives: max response, negative = inhibition, most hits filed as inhibitors. 310,000 compounds, 3.5% hits. Q9F4F7; active = well fitted inhibition curve with a large enough effect; inconclusive = small, poorly fitted or top-dose-only effect, or another doubt; inactive = no such curve, though single readings can be large or run the other way;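 also: the enzyme is Sfp with the accession as filed and its product quenches rhodamine fluorescence; potency is read from the fitted curve at half-maximal effect; 0% = enzyme reaction without inhibitor and -100% = no enzyme wells; top concentration of the series not given in the record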
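Compounds were incubated with enzyme (final 15 nM) for 15 min at room temperature before substrate addition started the reaction. Fluorescence at 525 nm excitation, 598 nm emission was recorded immediately and after 30 minutes.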
Menin-MLL FL inh: displaces fluorescein MLL peptide from human menin. AID 1766. Fluorescence polarization, fluorescein-MLL peptide displacement from menin. FP activity change, % at 61.4 µM. 290,000 tested, under 10 active; inconclusive = falling polarisation curve, or a change in total fluorescence; inactive = total fluorescence flat and polarisation flat or rising; no compound was filed as active; the % refers to the polarisation; negative = inhibition;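 also: % of control where 0% means no effect; inhibitors lower the polarisation; unlabelled MLL peptide was the positive control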
PINK1 expr mod: PINK1 expression modulation | 410,000 compounds, 0.2% hits | AID 624263 | PINK1 immunofluorescence, high-content cytometry, 24 h | Potency, µM (titrated, usually from 76.6 µM), without a hit: at the highest dose activation (PINK1 increase), hits mostly activators; active = well fitted activation curve with a large enough effect; inconclusive = small, poorly fitted or top-dose-only effect; inactive = flat fitted curve, though single readings scatter; cell line not stated here;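 also: potency is read from the fitted curve at half-maximal effect; % of control where 0% means no effect; nearly all actives have a fitted effect of over 65% in size; a mitochondrial uncoupler was the plate control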
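Measures PINK1 amount and localization on or inside mitochondria by immunofluorescence. Stable cells get compounds at 5 concentrations for 24 hours before fixation and staining; CCCP controls included.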
TRPML1 ag: agonists of human TRPML1 channel | 410,000 compounds, 0.12% hits | Q9GZU1 | AID 624414 | activation, % (concentration not given with the values) | TRPML1-expressing cells, Ca2+ dye fluorescence, FDSS; host cell line not named in the record; reference of the full effect not given here; in the data active = activation above about 50%; inconclusive = about 30% to 50%; inactive = below about 30%; also: 0% is about no effect; the text of the record puts the active cut at 80%
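Tet-induced TRPML1-DL cells, 1,500 per well, cultured overnight, were loaded with a no-wash Ca2+ dye for 45–90 min. Calcium fluorescence was recorded on the FDSS for 110 s after compound addition, before the EC80 agonist (4 uM 54-4) was added.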
ClpP mod: qHTS Assay for Activators of ClpP. 340,000 compounds, 1.9% hits. purified B. subtilis ClpP, FRET peptide cleavage, 20 min. Potency, µM (top dose mostly 57.5 µM), for the others: top-dose activity change, negative = active. ATP-dependent Clp protease proteolytic subunit (Bacillus subtilis (strain 168)), P80244; active = well fitted falling curve with a large enough effect; inconclusive = small, poorly fitted or top-dose-only effect; inactive = no such curve, though single readings can be large or run the other way; also: potency is read from the fitted curve at half-maximal effect; the source files actives as falling curves though it sought activators and does not explain the sign; nearly all actives have a fitted effect of over 65% in size; many hits overshoot -100%
Target sequence (P80244 whole entry, looked up): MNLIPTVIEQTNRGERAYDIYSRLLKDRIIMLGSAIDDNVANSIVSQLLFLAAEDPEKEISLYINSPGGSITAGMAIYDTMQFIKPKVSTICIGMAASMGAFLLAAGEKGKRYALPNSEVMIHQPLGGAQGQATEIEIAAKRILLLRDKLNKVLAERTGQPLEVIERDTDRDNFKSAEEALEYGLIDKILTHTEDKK
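FRET quenching reversal measured ClpP activation: 10 microg/mL B. subtilis ClpP at pH 8 with the FRET-FV decapeptide, read at 430 nm after 320 nm excitation. The 20-min minus 0-min signal was scaled between DMSO/no-enzyme wells and ADEP (5.8 microM final).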
* hit, by the source's call; u = inconclusive; x = no result given; & = joins results of further samples; [ ] = remark or other dose.

SMILES | TRPV1 PAM | TRPML1 blocker | Sfp inh | Menin-MLL FL inh | PINK1 expr mod | TRPML1 ag | ClpP mod
CN(C)C(CNC(=O)c1ccc([N+](=O)[O-])cc1Cl)c1ccco1 (stereo not given) | 7 | 11 | 0% | -2.3 | 1.4% | 1.0 | x
Cc1nc(NC(=O)CSc2ccc(-c3nc4ccccc4[nH]3)cn2)sc1C | -3 | -1 | -27% | 0.6 | 9.2% | 0.4 | -1.1%
COc1ccc(N2CCN(C3CCCN(C(=O)c4cccc(C)n4)C3)CC2)cc1 (stereo not given) | 13 | -12 | 9% | -6.4 | 3.2% | 0.5 | -1.5%
O=C(COc1ccc(F)cc1)NNC(=O)Cn1ccc(C(F)(F)F)n1 | x | 10 | x | x | -1.0% | 2.3 | -2.8%
Oc1csc(Cc2nc(-c3ccc(Br)cc3)cs2)n1 | -22 | 2 | 0% | 7.6 | 0.7% | -0.1 | x
CS(=O)(=O)c1ccc2nc(NC(=O)Nc3cccc(Cl)c3)sc2c1 | 4 | -22 | 1% | x | u | 0.2 | u
COc1ccc(C[C@@H]2OC3(C=CC(=O)C=C3)O[C@H]2Cc2ccc(OC)cc2)cc1 | x | -8 | x | x | -1.0% | 7.3 | -2.0%
CC1CCC(NC(=O)COC(=O)c2ccc3ncsc3c2)CC1 (stereo not given) | -6 | 14 | x | x | 1.1% | 2.1 | -2.6%
COC(=O)C1C(=O)c2c([nH]c(C(=O)OCCOC(C)C)c2C)CC1C (stereo not given) | -2 | 1 | 17% | -2.7 | -0.3% | 1.3 | 32µM*
CCNc1ncc2nc(-c3cn(C)c4ccccc34)c(=O)n(Cc3ccc(F)cc3)c2n1 | x | x | 7% | u | u | x | x
O=C(O)c1cccc(Nc2nc(N3CCOCC3)nc(N3CCOCC3)n2)c1 | 1 | -10 | 15% | 1.5 | 1.9%[38.3 µM] | 0.0 | -4.2%
O=C(CN1CCN(c2ccccc2)CC1)Nc1cccc(C(F)(F)F)c1 | -1 | 0 | 4% | -1.5 | 12%[38.3 µM] | 0.4 | 0.8%
Cc1cccc(CNC(=O)c2ccc(Cn3c(=O)c4cccn4c4cccnc43)cc2)c1 | x | -1 | x | x | -0.3% | 1.4 | 4.5%
COc1ccccc1CN1CC[C@@]2(CCCN(S(C)(=O)=O)C2)C1 | x | x | 8% | -2.1 | -0.4% | x | x
CCCCN1C(=O)NC(c2cccc([N+](=O)[O-])c2)C(C(=O)OCC)=C1C (stereo not given) | x | 10 | x | x | -0.9% | 1.0 | 2.1%
COc1ccc(-c2ccc3nccn3c2)cc1 | x | x | x | x | -0.2% | -0.4 | 4.4%
CC1(C)C(=O)N(c2ccccc2F)C(=O)c2ccccc21 | 9 | 10 | 6% | -0.6 | 0.5% | -0.5 | x
CCCOc1cccc(C(=O)N(Cc2ccc(C)o2)C2CCS(=O)(=O)C2)c1 (stereo not given) | x | 10 | x | x | 1.4% | 0.3 | u
CC1S/C(=N/N=C2CCC(C(C)(C)C)CC2)NC1=O (stereo not given) | -5 | -16 | -2% | 7.3 | 1.9% | 0.3 | -3.5%
Clc1ccc2c(c1)C1OCCC1C(c1ccco1)N2 (stereo not given) | 4 | 1 | -18% | -8.5 | 0.6% | 0.7 | u
COc1ccc(CNC(=O)c2ccc3c(c2)N(Cc2ccccc2)C(=O)c2ccccc2S3=O)cc1 (stereo not given) | x | 19 | x | x | 0.6% | -0.6 | -4.1%
CC(C)CNC(=O)NC(=O)COC(=O)COc1ccc(Cl)cc1Cl | 9 | 18 | 15% | -2.3 | 8.1% | 0.4 | x
COc1ccc(OC)c(NC(=O)CCNS(=O)(=O)c2cccs2)c1 | 8 | -2 | -4% | 2.2 | -0.9% | -0.8 | 0.6%
CC(C)(C)n1ncc2c(=O)n(Cc3ccc(Cl)cc3)cnc21 | -4 | -1&27 | 11% | 0.1 | 1.0% | 0.2&-0.2 | -1.4%
O=[N+]([O-])c1cccc(CNC2CCCCCC2)c1 | 5 | 10 | 26% | -0.4 | 1.4% | -0.7 | -1.6%
More entries.
SMILES | TRPV1 PAM | TRPML1 blocker | Sfp inh | Menin-MLL FL inh | PINK1 expr mod | TRPML1 ag | ClpP mod
O=C(NCc1cccs1)C(NS(=O)(=O)c1cccc2nsnc12)c1ccccc1 (stereo not given) | 4 | 16 | 20% | 5.1 | 0.5% | 1.7 | 1.0%
CCCCN(C(=O)CSc1nnc(-c2ccccc2)n1C)c1c(N)n(Cc2ccccc2)c(=O)[nH]c1=O | -6 | -9 | 15% | 1.9 | 0.5% | -0.6 | -1.5%
COc1ccc2sc3ccccc3c(=O)c2c1OC | 28 | -9 | u | -0.4 | -1.4% | -0.1 | -5.0%
Cc1cccc(C)c1OCCCCc1c(C)n[nH]c1C | 8 | 2 | -4% | 1.1 | 0.2%[38.3 µM] | 0.8 | 1.8%
O=C(Nc1ccc(Cc2ccc(NC(=O)Nc3cccnc3)cc2)cc1)Nc1cccnc1 | x | -2 | x | x | 4.5% | 0.0 | -0.8%
CCc1c(C)nc2c(C#N)c[nH]n2c1=O | 1 | -4 | 22% | 2.9 | 3.7%[38.3 µM] | 0.0 | u
CCN1CCc2c(sc(NC(=O)c3ccc(S(=O)(=O)N(C)c4ccccc4)cc3)c2C(=O)NC)C1 | 13 | 0 | -11% | u | 1.0% | 61* | -2.0%
Cc1cccc(C(=O)N[C@H](C(=O)Nc2cc(S(=O)(=O)N3CCCCC3)ccc2C)C(C)C)c1 | -1 | 10 | 30%[activator] | 2.3 | 3.4% | 2.3 | -2.6%
CC(=O)NC1=NN(c2ccccc2)C(=O)C1 | -5 | -5 | -13% | 2.1 | -1.4% | -0.3 | 1.1%
O=C(O)/C=C\C(=O)Nc1ccc(Oc2ccccc2)cc1 | 4 | -3 | 12% | 5.4 | 0.0% | -0.9 | -0.2%
Cc1cccc2c(C(=O)O)c3c(nc12)CCCCC3 | -8 | 7 | 10% | 1.8 | -0.3% | -0.5 | -6.1%
CCn1c(C)nc2cc(NC(=O)Nc3cccc(C(C)=O)c3)ccc21 | -13 | -11 | 1% | 4.3 | 2.1% | 3.7 | -2.1%
CCOC(=O)C1(Cc2ccccc2)CCCN(C(=O)COc2ccccc2OC)C1 (stereo not given) | x | 12 | x | x | -1.2% | -0.7 | 1.3%
CCN(CC)C(=O)c1ccccc1NS(=O)(=O)c1ccc(C)cc1 | 0 | 24 | 18% | 0.4 | u | -0.2 | 0.1%
O=S1(=O)N[C@@H](Cc2ccccc2)COc2cccc(N3CCC[C@H]3CO)c21 | x | x | x | x | -0.5% | -0.3 | -0.3%
Cc1nnc(NC(=O)CCCOc2ccccc2)s1 | 3 | -1 | 1% | 3.8 | 1.1% | 5.9 | 3.6%
COCCNC(=O)CCC1CCN(Cc2cccc(Oc3ccccc3)c2)CC1 | 27 | -15 | -3% | -7.1 | -2.0% | 0.6 | -2.4%
NS(=O)(=O)c1ccc(NC(=O)/C=C/c2cccc(Cl)c2)cc1 | -1 | -14 | 22% | 2.6 | 10% | 1.0 | 3.3%
Nc1nc2cc(Cl)ccc2cc1C(=O)NCCCc1ccccc1 | x | x | x | x | 1.3% | -0.5 | -28%
COc1ccc(-n2c(COc3cccc4ccccc34)nnc2SC(C)C(=O)O)cc1 (stereo not given) | -12 | 7 | 11% | -5.7 | 0.1% | 0.2 | x
COc1ccc(CCNC(=O)C2CCN(C(=O)c3ccc(F)cc3)CC2)cc1OC | -7 | 30 | 17% | 3.2 | 0.2% | 0.6 | 0.8%
Cc1ccc(-c2nn3c(C)nnc3s2)cc1NC(=O)c1cccs1 | 3 | -6 | 1% | 6.7 | 4.2%[38.3 µM] | 1.2 | -2.3%
CCc1nc2ccc(C(=O)NCc3ccccc3C)cc2nc1CC | x | -17 | x | x | 1.5% | -0.3 | -8.4%
COc1ccc(-n2c(=O)c3c4c(sc3n3c(SC(C)C)nnc23)COC(C(C)C)C4)cc1 (stereo not given) | x | -8 | x | x | 2.1% | -0.6 | -0.9%
O=C1NC[C@@H](CCCCN2C[C@H](Cc3ccc(O)cc3)N(CCc3ccc(O)cc3)C(=O)C2=O)N(CCc2ccccc2)C1=O | x | x | x | x | 0.7% | -0.3 | -2.5%
The listing continues:
SMILES | TRPV1 PAM | TRPML1 blocker | Sfp inh | Menin-MLL FL inh | PINK1 expr mod | TRPML1 ag | ClpP mod
CC(C)(CC(=O)O)CC(=O)NNc1ncccc1C#N | 13 | 6 | 21% | -1.8 | 3.4% | -1.1 | x
CC1=C(C(=O)Nc2ccccc2)C(c2ccco2)C(C#N)=C(SCC(=O)Nc2cccc(C)c2C)N1 (stereo not given) | 3 | 37 | 3% | -0.6 | u | 2.1 | u
Cc1cc(NC(=O)CSc2nnc(-c3ccco3)n2N)no1 | x | 1 | x | x | 3.0% | 1.5 | -1.2%
CCN(CC)S(=O)(=O)c1cc(NC(=O)c2ccccc2OCc2c(C)noc2C)ccc1C | x | 32 | x | x | 0.1% | 0.4 | -3.5%
Cc1ccc2[nH]c(=O)c(N3CCOCC3)c(-c3ccccc3)c2c1 | 23 | -14 | 2% | -0.5 | -1.6%[38.3 µM] | 3.9 | -24%
COc1ccc(C(=O)N=c2sc3c(C)ccc(OC)c3n2C)cc1OC | -8 | 12 | -4% | -1.1 | 4.5% | 2.1 | 3.9%
CCC(C)n1c(=O)c(C(=O)Nc2ccccc2S(N)(=O)=O)c(O)c2ccccc21 (stereo not given) | 1 | -4 | 2% | 0.5 | 8.7% | -0.1 | 10%
O=C(C/C=N/OCc1ccc(Cl)cc1)c1cnc(-c2ccccc2)s1 | 4 | 7 | 2% | 2.4 | 10% | -0.2 | 5.8%
CC(C)(C)OC(=O)N1CCC(C(=O)N[C@@H](Cc2ccccc2)C(=O)O)(c2ccccc2)CC1 | -3 | -10 | 43%[activator] | 1.2 | 0.7% | -0.3 | -3.2%
Cn1nc(C(C)(C)C)c([N+](=O)[O-])c1C(=O)Nc1ccc(Br)cc1 | -2 | 16 | -3% | 2.2 | 13% | 0.1 | 2.3%

2 compounds drawn at random from those above, as already listed:
SMILES | TRPV1 PAM | TRPML1 blocker | Sfp inh | Menin-MLL FL inh | PINK1 expr mod | TRPML1 ag | ClpP mod
Cc1ccc2[nH]c(=O)c(N3CCOCC3)c(-c3ccccc3)c2c1 | 23 | -14 | 2% | -0.5 | -1.6%[38.3 µM] | 3.9 | -24%
CCC(C)n1c(=O)c(C(=O)Nc2ccccc2S(N)(=O)=O)c(O)c2ccccc21 (stereo not given) | 1 | -4 | 2% | 0.5 | 8.7% | -0.1 | 10%

Screens (PubChem BioAssay)
